GIV Gai3 FP: GIV-Galpha-i interaction inhibition; percent of control (FP), % (no concentration beside the values); 0.42% of 210,000 active; P08753; Galpha-i3/FITC-GIV peptide fluorescence polarization, 90 min; active compounds read low; scaled: aluminum fluoride 0%, vehicle 100%;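 active means replicate mean at 85% of control or lower, very high polarization wells dropped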;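 further: wells of about 15 µL received 100 nL stock; the first replicate is given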
Target sequence (P08753 whole entry, looked up): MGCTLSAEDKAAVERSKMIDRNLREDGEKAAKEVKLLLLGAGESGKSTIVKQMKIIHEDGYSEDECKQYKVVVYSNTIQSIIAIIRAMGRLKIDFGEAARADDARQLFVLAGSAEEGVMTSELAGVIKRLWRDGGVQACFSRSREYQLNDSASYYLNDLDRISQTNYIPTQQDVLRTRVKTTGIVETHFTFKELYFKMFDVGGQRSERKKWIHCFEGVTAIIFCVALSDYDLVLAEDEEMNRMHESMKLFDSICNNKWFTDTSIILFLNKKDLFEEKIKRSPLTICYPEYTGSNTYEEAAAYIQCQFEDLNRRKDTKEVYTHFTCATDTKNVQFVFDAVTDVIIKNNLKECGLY
* marks the source's active call; other numbers are inactive results.

COc1cccc(NC(=O)CSc2nc3ccccc3c(=O)n2CCCC(=O)N2CCN(c3ccccc3)CC2)c1 was read as GIV Gai3 FP 100.
For O=C(O)c1ccc2nc(-c3ccccc3)c(-c3ccccc3)nc2c1 the results were GIV Gai3 FP 110.
Screening Cc1cc(C)c2c(c1)-c1c(ssc1=S)C(C)(C)N2C(=O)Cc1ccccc1 returned GIV Gai3 FP 112.
Screening CN1C(=O)/C(=c2\sc3n(c2=O)NC2(c4ccccc4)N(C)C(=O)N(C)C2(c2ccccc2)N=3)c2ccccc21 (centres undefined) returned GIV Gai3 FP 117.
C=CCn1c(SCC(=O)NCCc2ccccc2)nc2cc(C(=O)NCC3CCCO3)ccc2c1=O (centres undefined) was read as GIV Gai3 FP 113.
`C=Cc1ccc(Cn2c(=O)c3cnc(-c4ccc(OC)cc4)nc3n(C)c2=O)cc1` gave GIV Gai3 FP 99.
For Cc1ccc(C(=O)[C@H]2[C@H](c3ccccc3F)C(C#N)(C#N)[C@@H]3c4ccccc4C=CN32)cc1 the results were GIV Gai3 FP 130.
`O=C(CSc1nnc(-c2cccnc2)n1Cc1ccccc1)c1c[nH]c2ccccc12` gave GIV Gai3 FP 101.
`O=C(NCc1cccc(Cl)c1)c1ccc2c(c1)[nH]c(=S)n1c3ccccc3nc21` gave GIV Gai3 FP 109.
COC(=O)c1ccc(N2C(=O)/C(=C/c3ccc([N+](=O)[O-])cc3)C=C2c2ccccc2)cc1 was read as GIV Gai3 FP 105.
For CCOC(=O)c1sc(=S)n(-c2cccc3ccccc23)c1N the results were GIV Gai3 FP 101.
For CC1CCN(S(=O)(=O)c2ccc3c(ccc(=O)n3CC(=O)N3CCc4ccccc4C3)c2)CC1 the results were GIV Gai3 FP 103.
O=C(c1ccco1)N1CCN(C(=O)c2cc3c(s2)CN(C2CC2)C3)CC1 was read as GIV Gai3 FP 107.
For CC1=C(C(=O)OC(C)C)C(c2coc3ccc(C)cc3c2=O)C2=C(CC(c3cccs3)CC2=O)N1 (centres undefined) the results were GIV Gai3 FP 100.
For CSc1sc(C)cc1/C=N/NC(=O)c1nnn(-c2nonc2N)c1-c1ccccc1 the results were GIV Gai3 FP 112.
Screening N#CC1=C(N)Oc2n[nH]c(-c3cccc([N+](=O)[O-])c3)c2C1c1c(F)c(F)c(F)c(F)c1F (centres undefined) returned GIV Gai3 FP 100.
Screening N#CC1=CN(c2cc(F)cc(F)c2)c2cc(F)ccc2S1(=O)=O returned GIV Gai3 FP 101.
Screening COc1ccc(/C=C2/C(C)=C(C#N)c3nc(N)c(C#N)c(C)c32)cc1Br returned GIV Gai3 FP 106.
`N#CC1(C#N)[C@H](c2ccc(Cl)c([N+](=O)[O-])c2)[C@@H](C(=O)C23CC4CC(CC(C4)C2)C3)N2c3ccccc3C=C[C@@H]21` gave GIV Gai3 FP 119.
CC(C(=O)N1CCCN(Cc2noc(-c3ccccc3)n2)CC1)c1ccccc1 (centres undefined) was read as GIV Gai3 FP 103.

Copied from the results shown, 14 compounds:
C=CCn1c(SCC(=O)NCCc2ccccc2)nc2cc(C(=O)NCC3CCCO3)ccc2c1=O (centres undefined) was read as GIV Gai3 FP 113.
`C=Cc1ccc(Cn2c(=O)c3cnc(-c4ccc(OC)cc4)nc3n(C)c2=O)cc1` gave GIV Gai3 FP 99.
For Cc1ccc(C(=O)[C@H]2[C@H](c3ccccc3F)C(C#N)(C#N)[C@@H]3c4ccccc4C=CN32)cc1 the results were GIV Gai3 FP 130.
`O=C(CSc1nnc(-c2cccnc2)n1Cc1ccccc1)c1c[nH]c2ccccc12` gave GIV Gai3 FP 101.
`O=C(NCc1cccc(Cl)c1)c1ccc2c(c1)[nH]c(=S)n1c3ccccc3nc21` gave GIV Gai3 FP 109.
COC(=O)c1ccc(N2C(=O)/C(=C/c3ccc([N+](=O)[O-])cc3)C=C2c2ccccc2)cc1 was read as GIV Gai3 FP 105.
For CCOC(=O)c1sc(=S)n(-c2cccc3ccccc23)c1N the results were GIV Gai3 FP 101.
For CC1CCN(S(=O)(=O)c2ccc3c(ccc(=O)n3CC(=O)N3CCc4ccccc4C3)c2)CC1 the results were GIV Gai3 FP 103.
O=C(c1ccco1)N1CCN(C(=O)c2cc3c(s2)CN(C2CC2)C3)CC1 was read as GIV Gai3 FP 107.
For CC1=C(C(=O)OC(C)C)C(c2coc3ccc(C)cc3c2=O)C2=C(CC(c3cccs3)CC2=O)N1 (centres undefined) the results were GIV Gai3 FP 100.
For CSc1sc(C)cc1/C=N/NC(=O)c1nnn(-c2nonc2N)c1-c1ccccc1 the results were GIV Gai3 FP 112.
Screening N#CC1=C(N)Oc2n[nH]c(-c3cccc([N+](=O)[O-])c3)c2C1c1c(F)c(F)c(F)c(F)c1F (centres undefined) returned GIV Gai3 FP 100.
Screening N#CC1=CN(c2cc(F)cc(F)c2)c2cc(F)ccc2S1(=O)=O returned GIV Gai3 FP 101.
Screening COc1ccc(/C=C2/C(C)=C(C#N)c3nc(N)c(C#N)c(C)c32)cc1Br returned GIV Gai3 FP 106.

The results go on.
Screening COc1ccccc1NC(=O)CSc1nc2ccccc2c(=O)n1CCCC(=O)NCc1cccc(Cl)c1 returned GIV Gai3 FP 108.
`c1ccc(-c2ccc(-c3cs/c(=N\c4nc(-c5ccccc5)cs4)n3-c3ccccc3)cc2)cc1` gave GIV Gai3 FP 106.
For Cn1c(=O)c2nc(S(=O)(=O)CCC(=O)Nc3ccc(Cl)cc3F)n(C)c2n(C)c1=O the results were GIV Gai3 FP 107.
O=C(O)CCCN1C(=O)C(=O)/C(=C(/O)c2ccccc2)C1c1ccc(Br)cc1 (centres undefined) was read as GIV Gai3 FP 113.
`Cc1sc(C)c(S(=O)(=O)N2CCc3ccccc3C2)c1-c1cc(C(F)(F)F)on1` gave GIV Gai3 FP 108.
`Cc1cc(C)cc(C(=O)N[C@H](C)C(=O)NCc2cscn2)c1` gave GIV Gai3 FP 103.
For Cc1cc(C)c(S(=O)(=O)Nc2ccc3oc4c(c3c2)C(=O)CCC4)c(C)c1 the results were GIV Gai3 FP 110.
`CCCOc1ccc(NC(=O)C2CC(=O)N(CC)C(=Nc3ccccc3OC)S2)cc1` (centres undefined) gave GIV Gai3 FP 113.
Screening CS(=O)(=O)N1CCCN(C(=O)NC2CCCC2)CC1 returned GIV Gai3 FP 100.
For CC(=O)OCCN1C(=O)C2C3c4ccccc4C(c4ccccc43)C2C1=O (centres undefined) the results were GIV Gai3 FP 105.
C=CCn1c(SCC(=O)Nc2ccc(F)cc2)nc2sc(CC)cc2c1=O was read as GIV Gai3 FP 103.
O=C(Nc1nc2c(s1)CN(S(=O)(=O)c1ccccc1)CC2)Nc1ccccc1Cl was read as GIV Gai3 FP 104.
For COc1ccc2nc(-n3nc(C)c4c3NC(=O)CC4c3cc(Br)ccc3OC)sc2c1 (centres undefined) the results were GIV Gai3 FP 101.
Screening O=C1CSC(c2cn(-c3ccccc3)nc2-c2ccccc2)N1Cc1ccccc1 (centres undefined) returned GIV Gai3 FP 104.
For Cc1cc(N2CCCC2)n2nc(CN3CCN(c4ccccn4)CC3)nc2n1 the results were GIV Gai3 FP 97.
`O=[N+]([O-])c1cccc(Cc2nc3ccccc3nc2SCCN2CCOCC2)c1` gave GIV Gai3 FP 102.
Screening CCOC(=O)C1=C(c2ccccc2)N=C2SCC(=O)N2C1c1cccc(OC)c1 (centres undefined) returned GIV Gai3 FP 102.
For N#CC1=C(N)Oc2c(c(=O)oc3ccccc23)C12C(=O)N(CC(=O)O)c1ccccc12 (centres undefined) the results were GIV Gai3 FP 108.
COC(=O)C1C(c2ccc(O)cc2)C(C(=O)OC)S(=O)(=O)CS1(=O)=O (centres undefined) was read as GIV Gai3 FP 113.
For CCCc1noc(Cn2ccnc2CC)n1 the results were GIV Gai3 FP 99.
Screening CCOc1ccc(NC(=O)CSc2nnc(NC(=O)Nc3ccc(OC)cc3)s2)cc1 returned GIV Gai3 FP 101.
CCCCOC(=O)c1sc2nc3c(c(-c4ccco4)c2c1N)CCCC3 was read as GIV Gai3 FP 106.
`Cc1ccc(-c2ccc(OCCNC(=O)C3CC3)nn2)cc1` gave GIV Gai3 FP 96.
`Cc1cccc(-c2nnc(-c3nc(N4CCc5ccccc54)c4ccccc4n3)o2)c1` gave GIV Gai3 FP 111.
`C=C(C)CSc1nnc2n(-c3ccccc3C)c(=O)c3c4c(sc3n12)CCCC4` gave GIV Gai3 FP 103.
COc1ccc(NC(=O)c2cccc(-c3nccc(Oc4ccccc4OC)n3)c2)cc1 was read as GIV Gai3 FP 103.
CCCCC(=O)N1CCN(c2nc3ccccc3n(CC)c2=O)CC1 was read as GIV Gai3 FP 101.
Screening CC(=O)c1c(C)oc2ccc(N(C(=O)c3cccc([N+](=O)[O-])c3)S(=O)(=O)c3ccccc3)cc12 returned GIV Gai3 FP 108.
Screening Cc1ccc(C(=O)N2CCN(C(=O)c3cc4cc(Br)ccc4[nH]3)CC2)cc1C returned GIV Gai3 FP 102.
C=CC(=O)N1c2cc(C)c(C)cc2C2=C(SC(C(=O)OC)=C(C(=O)OC)C23SC(C(=O)OC)=C(C(=O)OC)S3)C1(C)C was read as GIV Gai3 FP 106.
Screening Cc1nc(S(=O)(=O)c2ccccc2)c(N2CCOCC2)o1 returned GIV Gai3 FP 106.
For NC(=O)C1CCN(c2ncnc3c2c(-c2ccccc2)cn3-c2cccc(C(F)(F)F)c2)CC1 the results were GIV Gai3 FP 99.
For O=C(NC1CCCC1)c1nc(-n2cnnc2)ccc1Br the results were GIV Gai3 FP 108.
Screening CC(CC=C(c1ccccc1)c1ccccc1)C1CCC2C3CC=C4CCCC(O)C4(C)C3CCC12C (centres undefined) returned GIV Gai3 FP 105.
O=[N+]([O-])c1cccc(CSc2nc3ccccc3n2S(=O)(=O)c2ccc(Cl)cc2)c1 was read as GIV Gai3 FP 105.
For CCN(CC)S(=O)(=O)c1ccc(C(=O)Nc2c3c(nn2-c2cccc(C)c2C)CSC3)cc1 the results were GIV Gai3 FP 107.
For O=C(O)c1ccc(N2C(=O)/C(=C/c3ccc(-c4cc(Cl)ccc4Cl)o3)C=C2c2ccccc2)cc1 the results were GIV Gai3 FP 214.
`COc1cccc(NC(=O)N2CCN(c3nc(C)cc(Nc4ccccc4)n3)CC2)c1` gave GIV Gai3 FP 103.
Screening O=C1Nc2ccccc2SC1C(=O)N1CCC(C(=O)N2CCn3c2nc2ccccc23)CC1 (centres undefined) returned GIV Gai3 FP 110.
For Cc1nnc(-c2c(C)[nH]c(C)c2S(=O)(=O)N2CCC(N3CCCCC3)CC2)o1 the results were GIV Gai3 FP 102.
`Clc1ccccc1CNC1=NCCNC12CCOCC2` gave GIV Gai3 FP 101.
For Cc1cc(=O)oc2c(C)c3oc(C(=O)c4ccccc4)c(C)c3cc12 the results were GIV Gai3 FP 108.
Screening COc1ccc(-c2nnc3c(C(=O)Nc4cccc(C)c4)cccn23)cc1 returned GIV Gai3 FP 106.
`Cc1noc(C)c1S(=O)(=O)N1CCC(CC(=O)N2CCN(C(=O)C3CCC3)CC2)CC1` gave GIV Gai3 FP 108.
For Cc1nc(-c2ccc(C)c(-n3cc(C(=O)Nc4ccc(Cl)cc4)c(C)n3)c2)no1 the results were GIV Gai3 FP 96.
For COC(=O)C1=C(C)NC(C)=C(C(=O)OC)C1c1cn(-c2ccccc2)nc1-c1ccc(S(=O)(=O)N(C)C)cc1 the results were GIV Gai3 FP 105.
`COc1cc(NC(=O)c2cc3nc(-c4ccc([N+](=O)[O-])cc4)cc(C(F)(F)F)n3n2)cc(OC)c1OC` gave GIV Gai3 FP 103.
For Fc1ccccc1Nc1nc2nonc2nc1N1CCCCCC1 the results were GIV Gai3 FP 100.
CC1(C)SCC(C(=O)O)N1C=O (centres undefined) was read as GIV Gai3 FP 102.
Screening CCOc1ccccc1NC(=O)c1ccc(-c2cccc(C)c2)nc1 returned GIV Gai3 FP 113.
`Cc1cc(C)c2c(n1)sc1c(=O)n(CC(=O)Nc3cc(F)ccc3F)cnc12` gave GIV Gai3 FP 101.
CCOC(=O)c1c(NC(=O)C(C)Sc2nnc(CNC(=O)c3ccco3)n2C2CCCCC2)sc2c1CCC2 (centres undefined) was read as GIV Gai3 FP 105.
CCOc1ccc(-c2csc(Cc3nc(-c4ccc5c(c4)OCO5)no3)n2)cc1 was read as GIV Gai3 FP 100.
CCN(CC)C(=O)N1c2ccccc2CCc2ccccc21 was read as GIV Gai3 FP 102.
Screening COc1ccccc1OCCOc1ccc(Cl)cc1-c1nc2sc3c(c2c(=O)[nH]1)CCCC3 returned GIV Gai3 FP 105.
For Cc1ccc(C)c(N=Cc2c(O)n(-c3ccccc3)c(=S)n(-c3ccccc3)c2=O)c1 the results were GIV Gai3 FP 108.
Screening Cc1ccc(C)c(-c2csc(=Nc3ccc(F)cc3)n2CCc2ccccc2)c1 returned GIV Gai3 FP 103.
Screening Cc1c(Cl)c(C)c(C2=NON3N(C(=O)Cc4ccccc4)c4ccccc4N23)c(C)c1Cl returned GIV Gai3 FP 110.
`O=C1C(Nc2cccc(Br)c2)=CC(c2cccc3ccccc23)N1c1cccc(Br)c1` (centres undefined) gave GIV Gai3 FP 109.
Screening Cc1cn2c(=O)cc(COc3ccc(Cl)cc3NC(=O)C(C)C)nc2s1 returned GIV Gai3 FP 112.
CCOC(=O)c1c(NC(C)=O)sc2c1CCN(Cc1ccccc1)C2 was read as GIV Gai3 FP 100.
CCOc1ccc(N2C(=O)/C(=C\c3cccc([N+](=O)[O-])c3)S(=O)(=O)C2c2cccc([N+](=O)[O-])c2)cc1 (centres undefined) was read as GIV Gai3 FP 113.
`O=[N+]([O-])c1ccccc1C1=Nc2ccccc2C(c2ccccc2)(c2ccccc2)O1` gave GIV Gai3 FP 106.
CCc1ccc(NC(=O)Cn2nc(C(=O)N3CCCC3)c3ccccc32)cc1 was read as GIV Gai3 FP 105.
`COc1ccc(C2(c3ccc(OC)cc3)C=Cc3c(c(OC)cc4ccccc34)O2)cc1` gave GIV Gai3 FP 109.
O=C(CC1SC(=O)N(CN2CCCCC2)C1=O)Nc1ccccc1 (centres undefined) was read as GIV Gai3 FP 103.
Screening O=C(Nc1ccc(Br)cc1)c1nc2ccccc2nc1N1CCCC1 returned GIV Gai3 FP 106.
COc1cc(NC(=O)c2sc3nc(N)c(C#N)c(-c4ccc(OC)c(OC)c4)c3c2N)c(OC)cc1Cl was read as GIV Gai3 FP 112.
Screening CN1C(=O)N(C)C(O)(c2ccccc2)C1(O)c1ccccc1 (centres undefined) returned GIV Gai3 FP 113.

High-throughput results as filed in PubChem.

A portion of the library (hit frequency here may not be typical).
